Compound activity from PubChem.
TRPML1 agonist: qHTS for Agonists of the Human Mucolipin Transient Receptor Potential 1 (TRPML1); Mucolipin-1 (Homo sapiens), Q9GZU1; TRPML1-expressing cells, Ca2+ dye fluorescence, FDSS; host cell line not named in the record; reference of the full effect not given here; activation, % (test concentration not listed); 0.12% of 410,000 active; AID 624414, 2012; in the data active = activation above about 50%; inconclusive = about 30% to 50%; inactive = below about 30%; also: 0% is about no effect; the text of the record puts the active cut at 80%
Target sequence (Q9GZU1 whole entry, looked up): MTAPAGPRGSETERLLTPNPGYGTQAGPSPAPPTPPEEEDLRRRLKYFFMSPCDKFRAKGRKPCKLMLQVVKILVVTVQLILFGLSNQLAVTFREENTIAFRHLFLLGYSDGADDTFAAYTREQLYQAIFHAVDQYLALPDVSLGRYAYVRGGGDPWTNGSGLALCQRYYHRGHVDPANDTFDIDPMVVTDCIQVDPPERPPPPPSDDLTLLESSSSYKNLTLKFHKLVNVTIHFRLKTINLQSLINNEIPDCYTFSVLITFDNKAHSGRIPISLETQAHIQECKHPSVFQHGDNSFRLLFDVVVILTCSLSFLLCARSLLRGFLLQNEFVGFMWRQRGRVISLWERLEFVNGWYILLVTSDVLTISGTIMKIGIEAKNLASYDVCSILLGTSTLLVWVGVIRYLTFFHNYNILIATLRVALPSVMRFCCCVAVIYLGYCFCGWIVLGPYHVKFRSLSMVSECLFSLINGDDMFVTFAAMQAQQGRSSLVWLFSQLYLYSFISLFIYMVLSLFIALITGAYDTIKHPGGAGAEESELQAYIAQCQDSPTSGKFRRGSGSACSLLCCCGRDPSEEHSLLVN
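In this qHTS format, compounds were pin-transferred onto Ca8-dye-loaded TRPML1-DL cells induced with Tet overnight, and intracellular Ca2+ fluorescence was recorded kinetically for 110 s after a 10 s baseline. A subsequent 4uM final 54-4 (EC80) addition followed by a second 110 s read served as the antagonist phase.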
PINK1 expr mod: A Quantitative High throughput Screen to Identify Chemical Modulators of PINK1 Expression; AID 624263, 2012; PINK1 immunofluorescence, high-content cytometry, 24 h; 0.2% of 410,000 active; Potency, µM (doses to about 76.6 µM), inactives show at the highest dose activation (PINK1 increase), actives largely listed as activators; active = well fitted activation curve with a large enough effect; inconclusive = small, poorly fitted or top-dose-only effect; inactive = flat fitted curve, though single readings scatter; cell line not stated here;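 also: potency is read from the fitted curve at half-maximal effect; % of control where 0% means no effect; nearly all actives have a fitted effect of over 65% in size; a mitochondrial uncoupler was the plate control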
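Compound titrations (5 concentrations, 24 h) on a stable cell line; DMSO and CCCP controls. Endpoint: fixed-cell PINK1 immunofluorescence with mitochondrial, cell and nuclear markers, scanned by microplate cytometer.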
* marks the source's active call; other numbers are inactive results. This is a subset. The share of hits here may be higher or lower than overall.

SMILES	TRPML1 agonist	PINK1 expr mod
COc1ccc(-c2nnc(SCC(=O)NCc3ccccc3)nc2-c2ccc(OC)c(OC)c2)cc1OC	2.8	5.8%
O=S(=O)(Nc1cccc2ccccc12)c1cccc2ccccc12	3.7	1.4%
CCC(=O)C1=C(c2ccccc2)N(C(=O)CC)n2c(nnc2C2CCCCC2)S1	2.9	-0.5%
Cc1cc(C)c(Cn2c3ccccc3c3cnn(CC(=O)NCc4cccs4)c(=O)c32)c(C)c1	0.1	0.9%
CC(C)c1ccc(S(=O)(=O)N2CCC(N3CCN(Cc4ccccc4)C(=O)C3=O)CC2)cc1	-0.9	0.7%
COc1cc(NC(=O)CCn2nc(C)c(S(=O)(=O)N3CCCCC3)c2C)cc(OC)c1OC	0.6	-0.2%
Cc1c(Cl)cccc1NC(=O)c1cnc2sc(N3CCCC3)nn2c1=O	0.4	1.0%
COc1cccc(C2CC(=O)Nc3c2c(=O)nc2c(C)cccn32)c1OC (stereo not drawn)	-0.7	0.2%
COc1ccccc1-c1nc(SCC(=O)c2ccc(Cl)cc2)n[nH]1	3.2	4.4%
O=C(Nc1ccc(S(=O)(=O)N2CCC(c3nc4ccccc4s3)CC2)cc1)c1ccccc1	-0.5	-0.1%
CCOc1cc(C2CC(=O)Nc3c2c(=O)nc(SCc2cccc(Cl)c2)n3C)ccc1O (stereo not drawn)	-0.1	1.3%
Cc1nc2nc(NC(=O)c3ccc(C(C)(C)C)cc3)[nH]n2c(=O)c1Cc1ccccc1	0.1	4.2%
COc1ccc2nc(NC(=O)c3nc(SCc4ccc(F)cc4)ncc3Cl)sc2c1	-0.5	8.8%
CC(C)c1ccc(NC(=O)C2CCCN(S(=O)(=O)c3cccc4nsnc34)C2)cc1 (stereo not drawn)	-0.7	1.0%
CC1CCC(NC(=O)c2ccc3c(c2)N(Cc2cccc(Cl)c2)C(=O)c2ccccc2S3(=O)=O)CC1 (stereo not drawn)	0.5	3.7%
CCc1ccc(C2c3c(oc4ccc(F)cc4c3=O)C(=O)N2c2nc(C)c(C(=O)OC)s2)cc1 (stereo not drawn)	1.1	1.4%
O=C(Nc1cccc(F)c1)c1ccc(-c2ccccc2)s1	3.3	13%
COc1cc(OC)c(NC(=O)CN2C(=O)CCn3nc(-c4cccn4C)cc32)cc1Cl	0.2	1.0%
Cc1ccc(CNC(=O)c2c3c(nc4ccccc24)C(=O)N(C2CCCCC2)C3)cc1	2.1	0.0%
CCOc1ccc(NC(=O)C2CC(=O)NC(=Nc3ccc(Cl)c(Cl)c3)S2)cc1 (stereo not drawn)	0.1	-4.7%
CCOc1ccc(-c2nc(SCC(=O)Nc3ccc4c(c3)OCO4)c(-c3ccc(F)cc3)[nH]2)cc1	0.4	3.5%
CCOC(=O)c1c(C)oc2nc(C)nc(N3CCN(c4ccc(OC)cc4)CC3)c12	0.6	0.5%
O=C(O)c1cc(-c2ccc(C(F)(F)F)cc2)nc2n[nH]c(-c3ccccc3)c12	0.1	-0.4%
CCc1ccccc1NC(=O)CN1C(=O)COc2ccc(S(=O)(=O)Nc3ccccc3)cc21	0.4	-0.3%
COc1cccc(C2C(C(=O)Nc3ccccc3OC)=C(C)Nc3nc(-c4ccco4)nn32)c1 (stereo not drawn)	-0.4	0.4%
CCOc1ccc(NC(=O)CC2C(=O)N(c3cccc(C)c3)C(=O)N2CCC2=CCCCC2)cc1 (stereo not drawn)	1.5	1.5%
O=C(Cn1ncc2c3ccccc3n(Cc3ccc(Cl)cc3)c2c1=O)NCCCc1ccccc1	-0.2	-0.6%
COc1cccc(NC(=O)Cn2cc(S(=O)(=O)N3CCCC3)c(S(=O)(=O)N3CCCC3)c2)c1	-0.7	3.7%
Cc1ccc(CNC(=O)C(C)n2c(=O)cc(C(F)(F)F)c3c(C)nn(C)c32)cc1 (stereo not drawn)	0.5	2.6%
O=C(NCc1ccc(F)cc1)c1cc2c(s1)-c1ccccc1SC2	0.3	-0.2%
Cc1ccc(NC(=O)Cn2ccn(-c3ccccc3)c(=O)c2=O)cc1	0.4	1.1%
O=C(Nc1ccc(C(=O)OCc2cc(=O)n3c4c(sc3n2)CCCC4)cc1)c1ccc(Cl)cc1	1.0	0.3%
CC(=O)c1ccc(NC(=O)c2ccc(CN3C(=O)CCn4nc(C)cc43)cc2)cc1	0.9	1.5%
Cc1cc(C)c(-c2n[nH]c3c2C(c2ccccc2F)N(CCO)C3=O)c(O)c1 (stereo not drawn)	2.8	-0.8%
Cc1ccc(Cl)cc1N1CCN(c2ncnc3onc(-c4ccc(F)cc4)c23)CC1	1.1	1.9%
CCOc1ccccc1N(C)C(=O)NCc1noc2ccccc12	2.6	-0.9%

Quoted at random: two compounds from above.
SMILES	TRPML1 agonist	PINK1 expr mod
Cc1cc(C)c(-c2n[nH]c3c2C(c2ccccc2F)N(CCO)C3=O)c(O)c1 (stereo not drawn)	2.8	-0.8%
O=C(Nc1ccc(C(=O)OCc2cc(=O)n3c4c(sc3n2)CCCC4)cc1)c1ccc(Cl)cc1	1.0	0.3%

Later entries:
SMILES	TRPML1 agonist	PINK1 expr mod
O=C(NCc1cccc(F)c1)c1cccc(NC(=O)c2nsc3ccccc23)c1	2.2	-0.1%
CCc1ccc(NC(=O)c2cnn(-c3c(C)cccc3C)c2C2CCNCC2)cc1	2.9	-5.1%
O=C(NCC(c1ccc2c(c1)OCO2)N1CCN(c2ccccc2)CC1)C(=O)Nc1cccc(F)c1 (stereo not drawn)	-0.5	-0.2%
CCOC(=O)c1ccc(NC(=O)C(CC)Sc2nc3ccncc3[nH]2)cc1 (stereo not drawn)	1.6	-0.6%
CCOc1ccccc1C(=O)Nc1cccc2ccc(C)nc12	1.7	1.7%
Cc1ccccc1NC(=O)Cn1cc(S(=O)(=O)N2CCCC2)c(S(=O)(=O)N2CCCC2)c1	-0.8	2.8%
CCOC(=O)c1c(NC(=O)/C=C/c2ccc(Cl)cc2)sc2c1CCC(C)C2 (stereo not drawn)	0.8	1.3%
Cc1c(Cl)ccc2sc(N3CCN(C(=O)C(C)C)CC3)nc12	-0.1	0.3%
COc1ccc(NC(=O)CC2C(=O)N(c3cccc(C)c3)C(=O)N2Cc2cccnc2)cc1 (stereo not drawn)	-0.6	1.0%
Cc1ccc2onc(CC(=O)Nc3cccc(C(F)(F)F)c3)c2c1	1.5	14%
COc1ccc2c(c1)sc1ncc(C(=O)NCc3ccc(OC(C)C)cc3)c(=O)n12	0.1	-0.9%
COc1cc2c(cc1OC)C(c1ccc(Cl)cc1)N(c1ccc(C)c(F)c1)C(=O)C2 (stereo not drawn)	-1.0	4.3%
O=C(C1CCN(S(=O)(=O)c2ccc(Br)s2)CC1)N1CCN(c2cccc(C(F)(F)F)c2)CC1	4.0	-0.7%
O=C(NC1CCCC1)c1ccc(CSc2nc3cccnc3n2Cc2ccccc2F)cc1	0.6	-0.7%
CCC12CN3CC(C)(CN(C1)C3c1c[nH]c3ccc(OC)cc13)C2=O (stereo not drawn)	1.1	-0.5%
COc1ccccc1NC(=O)C1CCCN(c2nnc(C)c3c(C)n(-c4ccccc4)nc23)C1 (stereo not drawn)	1.8	1.1%
COc1cccc(CNC(=O)c2sc3nc[nH]c(=O)c3c2C)c1	-0.5	3.2%
COc1ccccc1CNC(=O)CCCn1c(=O)c2ccccc2n(Cc2ccc(C)cc2)c1=O	0.0	0.5%
Cc1c(C(=O)N2CCC(C(=O)Nc3ccc(F)cc3)CC2)sc2nc[nH]c(=O)c12	-0.5	1.9%
CC(=O)N1CCOc2cc(S(=O)(=O)NCc3ccc(C)cc3)c(C)cc21	-0.7	-1.8%
COc1ccccc1Nc1cc(C(=O)NC2CCC(C)CC2)c2ccccc2n1 (stereo not drawn)	1.4	5.8%
Cc1ccccc1-n1c(SCc2ccc(Cl)cc2)nc2[nH]ncc2c1=O	1.0	1.1%
Cc1cccc(OCc2nnc(-c3ccccc3)o2)c1	0.0	-0.2%
Cc1ccc(F)c(Cn2cnc3c(cnn3C(C)(C)C)c2=O)c1Cl	2.8	6.9%
COc1ccccc1NC(=O)CSc1oc(-c2ccco2)nc1S(=O)(=O)c1ccc(Br)cc1	1.6	-0.9%
COc1ccc(OC)c(CC2C(=O)Nc3ccc(Br)cc32)c1 (stereo not drawn)	2.4	3.7%
O=C(Nc1ccncc1)C1C(=O)c2ccccc2N(Cc2ccccc2)C1=O (stereo not drawn)	-0.7	-0.2%
CCOc1ccc(-c2cn3c(n2)sc2cc(C(=O)NCCCN(CC)CC)ccc23)cc1	0.0	1.9%
CN(CCCNC(=O)Cn1ncc2c([nH]c3ccccc32)c1=O)Cc1ccccc1	1.5	2.3%
CCOc1ccc(C(c2c(O)cc(C)n(CCOC)c2=O)N2CCC(C)CC2)cc1 (stereo not drawn)	-0.8	1.6%
Cc1c(-c2nsc(NC(=O)c3cccc(Cl)c3)n2)nnn1-c1ccccc1C(F)(F)F	-0.4	-1.7%
CCc1ccc(OCc2nc(-c3ccc(-n4cccc4)cc3)no2)cc1	4.4	1.9%
Cc1cccc2c(=O)cc(CSCC(=O)Nc3ccc(Cl)cc3)[nH]c12	1.3	7.8%
Cc1cc(C)cc(OCC(=O)Nc2ccc(-c3nc4ccccc4o3)cc2)c1	3.8	12%
Cc1ccc(-c2nn(CCC(=O)Nc3ccc(Cl)c(Cl)c3)c(=O)c3ccccc23)cc1	2.8	2.6%
CC1CCc2c(sc3nc(-c4cc5ccccc5oc4=O)nc(Cl)c23)C1 (stereo not drawn)	1.4	2.6%
CCN(CC)CCNC(=O)Cn1nc(C)c2c(C)n(-c3ccccc3)nc2c1=O	-0.7	-2.8%
COc1cc(Cl)c(C)cc1NC(=O)c1cc2c(Cl)nc3ccc(C)cc3c2s1	-0.4	0.4%
O=C(CC(NCc1cccnc1)C(=O)O)Nc1ccc(O)cc1 (stereo not drawn)	0.6	1.8%
COc1ccc(CCNC(=O)CCn2c(=O)c3ccccc3n(Cc3ccccc3)c2=O)cc1OC	0.3	0.2%
Cc1ccc2c(c1)-c1c(cnn1CC(=O)N1CCN(c3cc(C)ccc3C)CC1)CO2	-0.4	0.6%
COc1ccccc1NC(=O)Cn1c(=O)n(CCC(=O)NCC2CCCO2)c(=O)c2cc(OC)c(OC)cc21 (stereo not drawn)	1.0	-0.4%
Cc1ccc(OCC(=O)Nc2nnc(SCc3cc(=O)c4ccccc4[nH]3)s2)cc1C	2.0	1.3%
CCN(CC)S(=O)(=O)c1ccc2c(c1)N(CC(=O)NCCCN1CCN(c3cc(C)ccc3C)CC1)C(=O)CO2	0.7	0.8%
O=C(Nc1c(C(=O)N2CCN(c3ccccc3F)CC2)oc2ccccc12)c1cccc(F)c1	0.2	1.0%
Cn1c(SCC(=O)N2CCCc3ccccc32)ncc(C(=O)Nc2ccc(F)cc2)c1=O	0.8	12%
O=C(Cn1cc(S(=O)(=O)Cc2cccc(Cl)c2)c2ccccc21)NCc1ccccc1Cl	4.1	3.9%
CCOc1ccc(CNS(=O)(=O)c2ccc(-c3cc(C(F)(F)F)on3)s2)cc1	-0.2	1.5%

In the list so far, 4 have a furan ring, fused or not:
SMILES	TRPML1 agonist	PINK1 expr mod
CCOC(=O)c1c(C)oc2nc(C)nc(N3CCN(c4ccc(OC)cc4)CC3)c12	0.6	0.5%
COc1cccc(C2C(C(=O)Nc3ccccc3OC)=C(C)Nc3nc(-c4ccco4)nn32)c1 (stereo not drawn)	-0.4	0.4%
COc1ccccc1NC(=O)CSc1oc(-c2ccco2)nc1S(=O)(=O)c1ccc(Br)cc1	1.6	-0.9%
O=C(Nc1c(C(=O)N2CCN(c3ccccc3F)CC2)oc2ccccc12)c1cccc(F)c1	0.2	1.0%

Continued.
SMILES	TRPML1 agonist	PINK1 expr mod
CCOC(=O)C1CCN(Cc2cn3c(-c4ccc(OC)cc4)nnc3s2)CC1	0.2	-5.2%
CC(C)CC(NC(=O)C1CCCCC1)C(=O)Nc1cccc(C(F)(F)F)c1 (stereo not drawn)	-0.5	-0.7%
COc1cccc(NC(=O)c2oc3ccccc3c2NC(=O)Cc2cccc(C)c2)c1	0.3	4.8%
CCOc1ccccc1OCCCn1c(-c2ccc(Cl)cc2)nc2ccccc2c1=O	-0.1	1.7%
CCC(=O)OCc1cnc(C)c2oc(=O)c(C(=O)Nc3ccc(CC)cc3)cc12	-0.4	3.3%
O=S(=O)(c1ccc(Cl)cc1)c1nc(-c2ccco2)oc1SCc1ccccc1F	2.6	-0.5%
COc1cccc(NC(=O)CSc2nc3c([nH]c4ccccc43)c(=O)n2-c2cc(C)cc(C)c2)c1	2.4	0.3%
Cc1c(-c2cccc(NC(=O)c3ccc(F)c(F)c3)c2)nc2ncccn12	0.6	0.6%
Cc1c(Cl)cccc1NC(=O)N1CCN(Cc2cc(=O)n3nc(-c4ccccc4F)sc3n2)CC1	-0.8	-0.5%

Compound profiles, as listed above:
Results for CCN(CC)CCNC(=O)Cn1nc(C)c2c(C)n(-c3ccccc3)nc2c1=O = TRPML1 agonist = -0.7; PINK1 expr mod = -2.8%
Results for O=C(CC(NCc1cccnc1)C(=O)O)Nc1ccc(O)cc1 (stereo not drawn) = TRPML1 agonist = 0.6; PINK1 expr mod = 1.8%

Part of the list above in a different format.
> COc1cccc(NC(=O)c2oc3ccccc3c2NC(=O)Cc2cccc(C)c2)c1
  TRPML1 agonist: 0.3 | PINK1 expr mod: 4.8%

> O=S(=O)(c1ccc(Cl)cc1)c1nc(-c2ccco2)oc1SCc1ccccc1F
  TRPML1 agonist: 2.6 | PINK1 expr mod: -0.5%
